From PubChem
Rango release inh = qHTS Assay for Inhibitors of RanGTP induced Rango (Ran-regulated importin-beta cargo) - Importin beta complex dissociation | Potency, µM (titrated, usually from 46.1 µM), without a hit: top-dose activity change, negative = inhibition | AID 540253, 2011 | Biochemical FRET Rango-importin beta, RanGTP-induced dissociation | Snurportin-1 (Homo sapiens) + GTP-binding nuclear protein Ran (Homo sapiens) + Importin … | 340,000 compounds, 0.071% hits; active means falling FRET ratio curve, often poorly fitted, with flat reads before Ran was added; inconclusive means other falling curves, or compound fluorescence or quenching; inactive means flat or rising ratio curve;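 note: potency is the fitted concentration of half-maximal effect; % of control where 0% means no effect; nearly all actives have a fitted effect of over 45% in size; -100% = wells without RanGTP and RCC1; the record marks most hits as doubtful in a second field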
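Compounds preincubate 5 min with complex of recombinant Rango and importin beta in PBS with 1 mM DTT. Ran (0.6 uM) loaded with 2 mM GTP plus 0.2 uM RCC1 starts dissociation; FRET is recorded 45 min later.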
Rango complex inh = qHTS Assay for Inhibitors of Rango (Ran-regulated importin-beta cargo) - Importin beta complex formation. AID 540263, 2011. 340,000 compounds, 0.031% hits. Potency, µM (highest dose often 92.2 µM), for inactives: at the highest dose inhibition of complex formation. Rango CFP/YFP FRET sensor + importin beta, 45 min; active = rising FRET ratio curve, often small or poorly fitted; inconclusive = mostly compound fluorescence or quenching in the first reads; inactive = flat curves in all reads;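 note: potency is the fitted concentration of half-maximal effect; 0% = DMSO wells and 100% = buffer wells lacking importin beta; nearly all actives have a fitted effect of over 15% in size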
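FRET biosensor Rango (snurportin 1 IBB between N-terminal EYFP and C-terminal Cerulean), 50 nM in PBS/1 mM DTT/0.02% Tween-20/0.1% BSA, preincubated 5 min RT with compound; 0.125 microM importin beta added, 45 min RT, CFP/YFP FRET ratio read.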
GLA inh pH 4.5 = qHTS Assay for Inhibitors of Human alpha-Galactosidase at pH 4.5. purified enzyme, 4-MU-alpha-Gal fluorescence, pH 4.5. 230,000 tested, under 10 active. activity change, negative = inhibition, % at 105 µM. AID 1467, 2008. Alpha-galactosidase A (Homo sapiens), P06280; inconclusive = small, poorly fitted or top-dose-only inhibition, or a rising curve; inactive = flat fitted curve, though single readings scatter; no compound was filed as active;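 note: 0% = full activity with enzyme and -100% = basal without enzyme; dose as in the result columns while the protocol names 77 µM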
Target sequence (P06280 whole entry, looked up): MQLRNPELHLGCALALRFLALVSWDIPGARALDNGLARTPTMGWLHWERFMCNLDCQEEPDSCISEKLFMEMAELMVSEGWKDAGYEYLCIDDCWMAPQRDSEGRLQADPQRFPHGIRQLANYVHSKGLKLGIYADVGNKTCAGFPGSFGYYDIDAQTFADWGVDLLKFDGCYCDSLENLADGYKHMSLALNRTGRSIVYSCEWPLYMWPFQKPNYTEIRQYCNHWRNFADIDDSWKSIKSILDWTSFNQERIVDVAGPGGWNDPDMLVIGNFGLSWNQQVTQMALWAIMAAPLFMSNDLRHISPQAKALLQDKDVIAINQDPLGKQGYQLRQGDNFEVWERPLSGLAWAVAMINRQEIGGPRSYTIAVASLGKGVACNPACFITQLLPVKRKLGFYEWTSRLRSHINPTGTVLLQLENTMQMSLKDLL
miR-21 reporter = qHTS Assay for Modulators of miRNAs and/orActivators of miR-21; AID 2288, 2010; HeLa miR-21 FLuc reporter, luciferase, 48 h; 340,000 tested, under 10 active; Potency, µM (doses to about 38.3 µM), without a hit: at the highest dose reporter change, positive = more light; active = well fitted rising curve with a large enough effect; inconclusive = small, poorly fitted or top-dose-only effect; inactive = no such curve, though single readings can be large or run the other way;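 note: % of control where 0% means no effect; miR-21 action dims this reporter so a rising signal means less miR-21 action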
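HeLa miR-21-FLuc reporter line, endogenous miR-21; 2000 cells/well in DMEM/10% FBS; compound titration up to ~40uM final, 48 h, 37 degree Celsius; luciferase detection reagent, 15 min lysis, CCD luminescence.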
Numbers without * were called inactive; ? = inconclusive; nt = no result given; & = joins results of further samples. Not all compounds are listed; the hit share may differ from the screen's.

SMILES	Rango release inh	Rango complex inh	GLA inh pH 4.5	miR-21 reporter
O=C(CCN1C(=O)c2ccccc2C1=O)Nc1ccc(F)cc1	-11%	1.6%	-4	-5%
O=C(CC(O)(CC(=O)OCc1ccccc1)C(=O)OCc1ccccc1)OCc1ccccc1	0%	0.4%	nt	nt
CC(=O)c1cccc(NC(=O)NNC(=O)c2ccc(-c3ccccc3)cc2)c1	0%	1.5%	nt	-1%
COc1ccc(-c2nnc(SCC(=O)NCc3cccs3)n2C(C)C)cc1	5%	?	11	-5%
CCOc1cc(/C=N\NC(=O)C2C(=O)NCC2c2ccccc2)ccc1OC (configuration not stated)	10%	-2.4%	-6	-6%
Cc1nc(Nc2nc3ccccc3o2)nc2c1CCC2	8%	6.7%	1	12%
CCOC(=O)c1ccc(NC(=O)Cn2nnc(-c3ccc(C)cc3)n2)cc1	9%	4.2%	4	-1%
Cc1oc(-c2ccc(Cl)cc2)nc1CN1CCCC(C(=O)NCCCN2CCOCC2)C1 (configuration not stated)	-8%	-0.6%	-12	8%
O=C(c1ccccc1)N1N=C(c2ccccc2O)CC1c1ccccc1 (configuration not stated)	-5%	0.8%	nt	-4%
CSc1nc(SCCN(C)C)c2c3c(sc2n1)COC(C)(C)C3	1%	0.2%	0	-12%
Cc1ccc2nsnc2c1S(=O)(=O)NCCc1c(C)[nH]c2ccc(F)cc12	-6%	0.3%	7	3%
CCOP(=O)(OCC)C(NC(=O)NS(=O)(=O)c1ccc(C)cc1)c1ccccc1 (configuration not stated)	1%	?	nt	1%
COc1ccc(CCNc2nc3ccc(C)cc3n3cnnc23)cc1OC	-7%	?	nt	-1%&-4%
CCCCN(CC)CCCNC(=O)Cn1nc(Cc2ccncc2)c2ccccc2c1=O	-11%	-2.0%	2	-6%
CC(C)(C)OC(=O)NCc1ccc(NC(=O)c2nc[nH]c2C(=O)NCCCNC(=O)c2[nH]cnc2C(=O)Nc2ccc(CNC(=O)OC(C)(C)C)cc2)cc1	-20%	10%	nt	nt
NS(=O)(=O)c1ccc(NC(=S)NC(=O)c2ccc(Br)o2)cc1	?	?	1	-14%
C/C(=N\NC(=O)c1nnn(-c2nonc2N)c1-c1cccs1)c1ccc(O)cc1	-6%	-0.1%	nt	5%
O=C(NCCN1CCCCC1)c1cc2ccccc2[nH]1	9%	5.3%	1	-8%
CSC1=N/C(=C\c2ccc(C)s2)C(=O)S1	-7%	?	-5	-4%
S=C(Nc1ccccc1)NC1CCN(Cc2ccccc2)CC1	-1%	-2.2%	-1	3%
CC1CCCCC1NC(=O)CN(C)S(=O)(=O)c1ccc2c(c1)CCC(=O)N2 (configuration not stated)	5%	-0.7%	nt	-5%
COC(=O)/C=C/c1ccc2c(c1)S(=O)(=O)N(c1cccc(OC)c1)[C@H]2CC(=O)OC	2%	-6.5%	nt	nt
CCN(CC)C(=S)SCC(=O)Nc1ncc2c(n1)CC(C)(C)CC2=O	-11%	-0.5%	-2	2%
Cc1ccc2c(c1)/C(=N/OC(=O)c1ccc(F)cc1)CCS2	0%	1.3%	5	-2%
COc1ccc(C(=O)CSc2n[nH]c(-c3ccco3)n2)cc1	-2%	-2.0%	14	-9%
Cc1cccnc1NC(=O)CCC(=O)c1cccs1	0%	1.2%	nt	nt
Cc1noc(C)c1NC(=O)N(C)C[C@@H]1Oc2ccc(NC(=O)CCC(F)(F)F)cc2CC(=O)N([C@@H](C)CO)C[C@@H]1C	29%	-4.2%	nt	nt
CCn1c(SCC(=O)NCc2ccco2)nnc1-c1c[nH]c2ccccc12	-2%	6.7%	-9	-4%
COc1ccccc1CNC(=O)COC(=O)Cn1cnc2ccccc21	6%	1.0%	10	-10%
COC(=O)c1ccccc1N=C(SC)N(C)C	8%	-7.1%	0	1%
O=C(CSc1nnnn1-c1ccc(C(=O)O)cc1)NC1CCCCC1	-7%	-0.3%	nt	0%
O=S(=O)(Nc1ccc(S(=O)(=O)Nc2ncccn2)cc1)c1ccc(Cl)cc1	1%	3.3%	nt	1%
CCCN1C(=O)c2ccc(C(=O)Nc3nccs3)cc2C1=O	10%	-0.9%	-1	-5%
COC(=O)C(C(C)=O)C1=C/C(=N\S(=O)(=O)c2ccc(C)cc2)c2ccccc2C1=O (configuration not stated)	?	-0.2%	-5	9%
CCOC(=O)N1C(=O)C2(CCCCC2)N(c2ccccc2Cl)C1=S	0%	0.5%	-5	21%
CCCCSc1nc2ccccc2[nH]1	-3%	-2.1%	-16	-60%
Cc1ccc(CNC(=O)C2CCN(S(=O)(=O)c3ccc(Br)s3)CC2)cc1	1%	1.2%	nt	1%
O=C(Nc1ccnc(-c2cccnc2)n1)c1cccs1	12%	2.0%	-4	0%
O=C(Nc1nc(-c2ccc(F)cc2)cs1)C1CCN(C(=O)c2ccc(F)cc2)CC1	33%	?	nt	nt
CC(=O)c1ccc(NC(=O)c2cc(C)no2)cc1	14%	1.3%	nt	-8%
CCOC(=O)N1CCN(C(=O)c2ccc(C)c(S(=O)(=O)N3CCCCC3)c2)CC1	9%	-3.7%	nt	2%
Cc1ccc(S(=O)(=O)N2CCC(C(=O)Nc3nnc(C4CCCC4)s3)CC2)cc1	2%	0.0%	-1	0%
Cn1c(=O)oc2cc(S(=O)(=O)N3CCC(C(=O)NCC4COc5ccccc5O4)CC3)ccc21 (configuration not stated)	-6%	6.4%	5	8%
Cc1ccc2nc(NCCCNC(=O)c3cnccn3)c(C#N)cc2c1	-18%	?	-6	-6%
CC(C)C[C@@H]1CN=C(N)N1C[C@@H]1CCCN1C[C@H](C)N1C[C@@H](Cc2ccccc2)N(CCCC2CCCC2)C1=N	8%	-1.4%	nt	nt
O=C(CSc1nc2[nH]ncc2c(=O)n1-c1ccccc1)N1CCCCCC1	nt	nt	-24	-7%
CC(=O)Nc1ccc(OCC(O)Cn2nc(C)c(Br)c2C)cc1 (configuration not stated)	29%	-2.6%	6	-1%
CC(=O)Nc1ccc(NC(=O)c2nc(S(=O)(=O)Cc3ccccc3)ncc2Cl)cc1	8%	5.0%	nt	?
O=C(Nc1cc([N+](=O)[O-])ccc1Cl)c1ccc2c(c1)OCO2	-16%	-0.3%	3	-2%
COC(=O)c1ccccc1NC(=O)CN1CCN(c2ccccn2)CC1	10%	-3.7%	3	-7%
CCOc1ccccc1C(=O)N(Cc1ccc(C)o1)C1CCS(=O)(=O)C1 (configuration not stated)	-7%	-1.1%	nt	0%
COc1ccc(OCc2cccc(C(=O)NN)c2)cc1	-5%	?	nt	-55%
COC/C=C/C1=CC2=CC(=O)C(C)(OC(=O)c3cnc4ccccc4n3)C(=O)C2=CN1C1CC1 (configuration not stated)	-24%	-1.8%	5	nt
O=C(NC1CCCC1)C(c1cccs1)N(Cc1ccco1)C(=O)c1csnn1 (configuration not stated)	-5%	-0.9%	3	0%
C=CCNc1sc(C(=O)c2ccccc2)c(N)c1C#N	0%	1.2%	-7	-15%
Cc1ccc(Nc2nc(C)c3c(n2)CC(C)CC3=O)c(C)c1 (configuration not stated)	15%	-2.5%	-3	2%
COc1cc(/C=N\NC(=O)CNC(=O)C(c2ccccc2)c2ccccc2)ccc1O	11%	1.2%	1	2%
COc1cc(OC)nc(NC(=O)NS(=O)(=O)c2ccc(F)cc2)n1	14%	-3.0%	3	-1%
CCCCOCCOCCOCCCC	10%	-0.5%	nt	nt
Cc1c(NC(=O)C2CC(c3cccc(Br)c3)=NO2)c(=O)n(-c2ccccc2)n1C (configuration not stated)	4%	-2.7%	5	3%

Following part:
SMILES	Rango release inh	Rango complex inh	GLA inh pH 4.5	miR-21 reporter
CN(C)/C=N/c1[nH]ncc1C#N	0%	?	6	-1%
CCN(CC)C(=O)C1CC(=O)OC1(C)C (configuration not stated)	26%	9.9%	-3	0%
N=C1/C(=C\c2ccc(OC(=O)c3ccc(F)cc3)cc2)C(=O)N=C2SC(N3CCCC3)=NN12	4%	-4.2%	nt	-1%
O=C1CCCC2=C1C(c1c(Cl)nc3sccn13)C1=C(CCCC1=O)N2	nt	nt	-4	-3%
COc1cc(N2CCCC2)c(OC)cc1/C=c1/sc2nc3ccccc3n2c1=O	nt	nt	-6	-9%
COc1ccc(N2CCN(CC(=O)Nc3ccccc3SC)CC2)cc1	0%	-0.9%	2	-1%
CCCOc1ccc(C2NC(=O)CCC2[N+](=O)[O-])cc1 (configuration not stated)	18%	0.0%	nt	0%
Cc1ccc2sc(N(CCCN(C)C)C(=O)c3ccc(S(=O)(=O)N(C)Cc4ccccc4)cc3)nc2c1C	8%	-0.8%	nt	nt
O=C(N/N=C/c1ccc(OC(=O)c2ccccc2)cc1)c1cccc(O)c1	1%	0.5%	-2	-25%
O=C(O)CCc1ccc(-c2ccc(Cl)cc2)n1NC(=O)c1ccc(O)cc1	-2%	2.0%	4	-1%
CC1CC(C)CN(c2cc(=O)n(Cc3ccc(F)cc3)c(=O)[nH]2)C1 (configuration not stated)	-25%	5.6%	4	-2%
COc1cc(CO)ccc1OCC(=O)Nc1ccc(Br)cc1	0%	-2.9%	6	-37%
CCCOP(=O)(c1ccc(N(C)C)cc1)C(O)c1c(Cl)cccc1Cl (configuration not stated)	-7%	11%	nt	2%
CNC(=O)CN1C(=O)NC2(CCc3ccccc32)C1=O (configuration not stated)	15%	-3.2%	0	-1%
Cc1ccc(NC(=O)COc2ccc3c(c2)CCC3)nc1	-13%	3.4%	nt	nt
O=C1CCC(C(=O)OCC(=O)N2N=C3/C(=C\c4ccccc4)CCCC3C2c2ccccc2)N1 (configuration not stated)	1%	0.7%	nt	nt
COc1ccccc1N1CCN(C(CNS(=O)(=O)c2ccccc2)c2ccccc2)CC1 (configuration not stated)	21%	1.1%	nt	19%
O=C(CSCc1ccccc1)N1CCN(c2ccc(F)cc2)CC1	-3%	-5.0%	-6	-20%
CN(Cc1ccccc1)C(=O)CN1C(=O)NC(C)(c2ccc(C(C)(C)C)cc2)C1=O (configuration not stated)	-7%	0.0%	nt	4%
COCCCNC(=O)C[C@H]1C[C@H](C(=O)N(C(C)C)C(C)C)[C@@]2(C)c3[nH]c4ccc(Cl)cc4c3CCN2C1=O	-12%	2.7%	nt	nt
CN(C)CCCOC(=O)c1ccccc1Cl	-3%	-1.9%	-21	-4%
COc1ccc(C2Nc3ccccc3C(=O)N2c2ccc(C)cc2)cc1Cn1cc([N+](=O)[O-])cn1 (configuration not stated)	2%	-4.7%	?	-49%
Cc1cc(C)n(CCC(=O)N/N=C/c2c(O)ccc3ccccc23)n1	-6%	0.0%	-4	22%
CCOC(=O)c1c(NC(=S)Nc2ccccc2)sc2c1CCCCC2	15%	-2.4%	1	-3%
CC(=O)Nc1nc2c(c3c1c(=O)oc1ccccc13)CC(C)CC2 (configuration not stated)	nt	nt	1	-6%
O=C(C1CCC1)N1CCc2cc(S(=O)(=O)Nc3ccc4c(c3)OCCO4)ccc21	-20%	6.6%	-1	-2%
Cc1ccc2[nH]c(O)c(N=NC(=O)c3ccc(NS(=O)(=O)c4cccs4)cc3)c2c1	2%	3.5%	-8	-18%
COc1ccc(C(c2nnnn2C2CCCC2)N2CCN(C(=O)c3ccco3)CC2)cc1OC (configuration not stated)	-10%	-1.6%	nt	-1%
Cc1ccc2nc(SCC(=O)Nc3ccc(C(N)=O)cc3)[nH]c2c1	-17%	-0.9%	14	-5%

Compound profiles, from the list above:
COc1ccc(C(c2nnnn2C2CCCC2)N2CCN(C(=O)c3ccco3)CC2)cc1OC (configuration not stated) is listed as Rango release inh: -10%; Rango complex inh: -1.6%; GLA inh pH 4.5: nt; miR-21 reporter: -1%
CC(=O)Nc1nc2c(c3c1c(=O)oc1ccccc13)CC(C)CC2 (configuration not stated) is listed as Rango release inh: nt; Rango complex inh: nt; GLA inh pH 4.5: 1; miR-21 reporter: -6%
